High-throughput results (PubChem)
ClpP mod – qHTS Assay for Activators of ClpP | purified B. subtilis ClpP, FRET peptide cleavage, 20 min | ATP-dependent Clp protease proteolytic subunit (Bacillus subtilis (strain 168)), P80244 | Potency, µM (titrated, usually from 57.5 µM), for the others: top-dose activity change, negative = active | hit rate 1.9% among 340,000; active = well fitted falling curve with a large enough effect; inconclusive = small, poorly fitted or top-dose-only effect; inactive = no such curve, though single readings can be large or run the other way; further: potency means the concentration at half of the fitted maximal effect; the source files actives as falling curves though it sought activators and does not explain the sign; nearly all actives have a fitted effect of over 65% in size; many hits overshoot -100%
Target sequence (P80244 whole entry, looked up): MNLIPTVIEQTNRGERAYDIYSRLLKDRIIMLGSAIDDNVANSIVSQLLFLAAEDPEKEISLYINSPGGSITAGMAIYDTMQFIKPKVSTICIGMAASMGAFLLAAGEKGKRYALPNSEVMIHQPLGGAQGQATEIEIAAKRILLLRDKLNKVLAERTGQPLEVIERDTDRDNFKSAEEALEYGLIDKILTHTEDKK
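ClpP 10 microg/mL final, pH 8 Tris/KCl buffer with BSA, glycerol, Tween-20; compound pinned in; FRET-FV substrate; RT 20 min; Ex320/Em430; ΔFRET vs ADEP 5.8 microM, DMSO, no enzyme.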
TRPML1 agonist – human mucolipin-1 channel agonism. activation, % (concentration not given with the values). hit rate 0.12% among 410,000. AID 624414. TRPML1-expressing cells, Ca2+ dye fluorescence, FDSS; host cell line not named in the record; reference of the full effect not given here. Q9GZU1; in the data active = activation above about 50%; inconclusive = about 30% to 50%; inactive = below about 30%; further: 0% is about no effect; the text of the record puts the active cut at 80%
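In this qHTS format, compounds were pin-transferred onto Ca8-dye-loaded TRPML1-DL cells induced with Tet overnight, and intracellular Ca2+ fluorescence was recorded kinetically for 110 s after a 10 s baseline. A subsequent 4uM final 54-4 (EC80) addition followed by a second 110 s read served as the antagonist phase.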
TRPML1 blocker – blocks the human TRPML1 channel | Q9GZU1 | TRPML1-inducible cells, Ca2+ dye fluorescence, FDSS; hits give low values; inhibition of EC80 agonist-evoked calcium signal | activity change, negative = inhibition, % (test concentration not listed) | hit rate 0.02% among 390,000 | AID 624415; in the data active means activity change below about -50%; inconclusive means about -30% to -50%; inactive means above about -30%;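 further: stimulus is agonist 54-4 at its EC80 concentration; on the % scale 0 is the no-effect control and ±100 the full control effect; compound concentration not given in the record; the text of the record puts the active cut at -80%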
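Calcium fluorescence in TRPML1-DL cells induced overnight with Tet: a 110 s read after compound pin addition, then a 110 s antagonist read after challenge with 54-4 at 4 uM final (EC80).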
PINK1 expr mod – PINK1 expression modulation | Potency, µM (top dose mostly 76.6 µM), without a hit: at the top dose activation (PINK1 increase), usual class: activators | PINK1 immunofluorescence, high-content cytometry, 24 h | hit rate 0.2% among 410,000; active = well fitted activation curve with a large enough effect; inconclusive = small, poorly fitted or top-dose-only effect; inactive = flat fitted curve, though single readings scatter; cell line not stated here;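 further: potency means the concentration at half of the fitted maximal effect; % of control where 0% means no effect; nearly all actives have a fitted effect of over 65% in size; a mitochondrial uncoupler was the plate control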
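Readout is PINK1 immunofluorescence, quantified alongside mitochondrial, cell and nuclear markers by laser-scanning microplate cytometry. Cells from a stable line were exposed to compound titrations (5 concentrations) for 24 hours, with CCCP controls.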
Sfp PPTase inh – Sfp phosphopantetheinyl transferase inhibition. Q9F4F7. Potency, µM, for inactives: max response, negative = inhibition, usual class: inhibitors. hit rate 3.5% among 310,000. AID 1490. Biochemical Sfp PPTase activity, qHTS; active means well fitted inhibition curve with a large enough effect; inconclusive means small, poorly fitted or top-dose-only effect, or another doubt; inactive means no such curve, though single readings can be large or run the other way;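 further: the enzyme is Sfp with the accession as filed and its product quenches rhodamine fluorescence; potency means the concentration at half of the fitted maximal effect; 0% = enzyme reaction without inhibitor and -100% = no enzyme wells; top concentration of the series not given in the record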
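With Hepes-Na pH 7.6 buffer containing 10 mM MgCl2, Sfp (15 nM) modified BHQ-2-YbbR (12.5 uM) using rhodamine-CoA (5 uM). Two reads 30 minutes apart at 525/598 nm yielded each well's rate.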
Menin-MLL FL inh – inhibitors of human menin-MLL interaction, wild-type MLL peptide; Fluorescence polarization, fluorescein-MLL peptide displacement from menin; FP activity change, % at 61.4 µM; 290,000 tested, under 10 active; AID 1766; inconclusive = falling polarisation curve, or a change in total fluorescence; inactive = total fluorescence flat and polarisation flat or rising; no compound was filed as active; the % refers to the polarisation; negative = inhibition;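 further: % of control where 0% means no effect; inhibitors lower the polarisation; unlabelled MLL peptide was the positive control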
TRPV1 PAM – human TRPV1 potentiation. Q8NER1. hit rate 0.02% among 320,000. AID 540277. potentiation, % at 8.33 µM. TRPV1-expressing cells, Fluo-8 calcium influx, capsaicin EC20 potentiation; host cell line not named in the record; control for the full effect not named in the record; active means potentiation above 80%; inconclusive means 30% to 80%; inactive means below 30%; further: 0% is about no effect
Target sequence (Q8NER1 whole entry, looked up): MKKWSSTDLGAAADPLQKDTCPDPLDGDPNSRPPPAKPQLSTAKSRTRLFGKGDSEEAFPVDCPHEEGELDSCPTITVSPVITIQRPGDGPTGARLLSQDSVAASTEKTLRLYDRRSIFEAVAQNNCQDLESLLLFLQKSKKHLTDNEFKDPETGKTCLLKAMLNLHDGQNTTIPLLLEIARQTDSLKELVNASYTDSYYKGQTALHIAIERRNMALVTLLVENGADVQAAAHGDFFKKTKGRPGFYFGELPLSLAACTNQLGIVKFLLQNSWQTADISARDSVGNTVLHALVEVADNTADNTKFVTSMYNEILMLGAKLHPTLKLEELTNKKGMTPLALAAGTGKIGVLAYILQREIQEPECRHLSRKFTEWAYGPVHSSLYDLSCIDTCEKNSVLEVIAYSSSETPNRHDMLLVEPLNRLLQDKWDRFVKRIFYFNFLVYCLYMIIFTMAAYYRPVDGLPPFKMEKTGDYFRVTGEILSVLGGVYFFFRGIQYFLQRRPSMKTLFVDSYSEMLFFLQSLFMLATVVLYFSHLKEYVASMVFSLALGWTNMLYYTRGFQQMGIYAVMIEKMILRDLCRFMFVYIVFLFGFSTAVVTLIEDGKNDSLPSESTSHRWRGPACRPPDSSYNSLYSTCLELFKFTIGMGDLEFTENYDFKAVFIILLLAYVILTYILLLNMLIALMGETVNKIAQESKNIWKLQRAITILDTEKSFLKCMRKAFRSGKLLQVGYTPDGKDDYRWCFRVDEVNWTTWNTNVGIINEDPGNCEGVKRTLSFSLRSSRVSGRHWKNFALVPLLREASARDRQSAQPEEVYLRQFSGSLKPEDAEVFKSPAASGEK
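Cells expressing TRPV1 were dye-loaded with Fluo-8 and read kinetically: 10 s baseline, 3 min after compound (agonist portion), then 2 min after EC20 capsaicin (allosteric enhancer portion). Calcium-bound dye fluorescence at 480/520 nm.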
Starred values were filed as active, the others as inactive; ? = inconclusive; . = not tested or not shown; & = joins results of further samples; [ ] = remark or other dose. Hits appear at their usual frequency; any-hit rate near 4.4%.

SMILES | ClpP mod | TRPML1 agonist | TRPML1 blocker | PINK1 expr mod | Sfp PPTase inh | Menin-MLL FL inh | TRPV1 PAM
CCN(CCn1cccn1)Cc1nc(-c2ccccc2)no1 | -0.4% | -0.2 | 10.3 | -0.3% | -13.5% | -2.4 | -12.2
Cc1ccc(C)c(N2CCN(c3ccncc3N)CC2)c1 | 1.7% | -0.4 | -9.8 | -1.9% | 14.0% | 3.8 | -12.0
CC1=C(C(=O)OC2CCCCC2)C(c2cccs2)n2c(nc3ccccc32)N1 (configuration not stated) | 3.5% | 1.4 | -1.5 | 28.8% | -0.8% | 2.7 | 9.5
Cn1c(=O)c(C(=O)COC(=O)c2cc(-c3ccccc3)nc3ccccc23)c(N)n(Cc2ccccc2)c1=O | . | . | . | . | 15.1%&-5.8% | 13.4&12.9 | -14.0
O=[N+]([O-])c1ccc(CN2CC(N3CC=CC3)CS2(=O)=O)cc1 (configuration not stated) | 1.6% | -0.6 | . | -0.8% | . | . | .
CC1CCN(C(=O)COC(=O)c2ccccc2C(=O)c2ccccc2)CC1 | 3.8% | 0.8 | 0.1 | -0.3% | . | . | .
Cc1cccc(OCC(=O)Nc2cc(-c3ccccc3F)nn2-c2ccccc2)c1 | -8.5% | 0.5 | -11.2 | 5.2% | . | . | .
CCOC(=O)CSc1nc2ccccc2n2c(C)nnc12 | 0.2% | 0.1&0.6 | 4.1&11.5 | -0.1%&-0.4% | 0.2% | 4.7 | 12.2
CCc1cccc2c(C(=O)COC(=O)c3c(C)noc3C)c[nH]c12 | 1.1% | -0.5 | -5.1 | 2.8%[38.3 µM] | 9.8% | -2.9 | 15.1
Cc1ccc(N2Cc3ccccc3C2=O)cc1 | -2.5% | . | . | -0.1% | 8.7% | 0.7 | 0.9
Cc1cc(C)cc(OCC(=O)OCC(=O)N2CC(=O)Nc3ccccc32)c1 | . | 1.6 | -9.7 | 0.3% | 12.0% | 0.2 | 6.7
Cc1nc(SCC(=O)N(C)C2CCCCC2)[nH]c(=O)c1Cc1ccccc1 | 0.4% | 0.0 | -15.6 | . | 4.6% | 1.7 | 3.2
COc1ccc(-n2c(C)cc(-c3csc(N)n3)c2C)cc1 | -2.0% | -0.6 | -9.0 | 22.5% | ? | 8.8 | 5.9
CNS(=O)(=O)c1cccc(C(=O)OCC(=O)Nc2ccc(-c3nc4ccc(C)cc4s3)cc2)c1 | . | -0.2 | -6.1 | 15.6% | 4.4% | 4.7 | -6.6
O=C(NC1CCCC1)C(c1ccc(F)cc1)N(C(=O)c1csnn1)c1ccccc1F (configuration not stated) | . | -0.8 | -15.9 | 13.9% | 11.5% | -0.2 | 0.5
COc1ccccc1Nc1nc(C)cc(C)n1 | 17.8µM* | -0.3 | ? | -0.3% | 16.0% | 9.1 | 21.9
CCOc1ccc2nc(N3CCC(C(=O)N4CCN(C(=O)c5ccco5)CC4)CC3)sc2c1 | -0.8% | 1.2 | 10.7 | 1.2% | 5.4% | 1.0 | 12.7
Cc1nn(C)c(C)c1S(=O)(=O)N(CC(=O)NCc1cccs1)c1ccc(C(C)C)cc1 | 0.8% | -0.7 | 9.3 | -0.2% | 17.1% | 2.5 | 3.1
COC(=O)c1c(C(=O)OC)c(C)n(Cc2ccco2)c1C | -1.1% | 0.0 | 2.9 | -0.3% | 15.9% | 1.0 | 0.9
CCOc1ccc(-n2c(=O)c3c(C)c(C(=O)N(C)C)sc3n(CC(=O)Nc3c(C)cc(C)cc3C)c2=O)cc1 | -2.1% | 1.1 | -16.9 | -0.1% | . | . | .
COc1ccccc1CNC(=O)C1CCCN(c2nc3ccccc3n3cccc23)C1 (configuration not stated) | 12.6µM* | 5.2 | 50.8 | -1.1% | . | . | .
CCN(CC)S(=O)(=O)c1cccc(NC(=O)c2cc3ccccc3o2)c1 | -3.2% | 0.4 | 7.6 | 2.1% | -1.4% | 3.2 | -12.1
COc1ccc(-c2nc(CS(=O)CC(=O)NCc3ccc(Cl)cc3)c(C)o2)cc1OC (configuration not stated) | . | 0.3 | 4.0 | 1.1% | 12.2% | 2.5 | 16.6
NC(N)=NCCCS(=O)(=O)Nc1ccc(Nc2c3ccccc3nc3cc([N+](=O)[O-])ccc23)cc1 | 0.2% | -0.5 | -5.9 | 10.4% | . | . | .
COc1ccc(C(=O)Oc2c(C)occc2=O)cc1OC | 1.3% | 0.7 | -8.4 | -3.4% | 16.2% | -1.2 | 5.1
CCOC(=O)CCNC(C)C1COc2ccccc2O1 (configuration not stated) | 6.31µM* | -0.4 | 5.5 | -0.9% | -24.8% | -0.7 | -5.0
CN(C(=O)CC1C(=O)NCCN1CC(c1ccccc1)c1ccccc1)C(C1CC1)C1CC1 (configuration not stated) | -0.5% | 0.2 | 8.3 | 0.5% | 13.4% | 1.7 | -28.6
COc1cccc2c1OCC1COc3c(c(=O)n(C)c(=O)n3C)C21 (configuration not stated) | 0.1% | -0.4 | 16.1 | 0.6% | 24.6% | 0.2 | -1.5
CCCc1nc(SCC(=O)Nc2ccc(N3CCOCC3)cc2)c2ccccc2n1 | -2.3% | 0.8 | 13.6 | 6.5% | -28.7% | 3.9 | 0.3
COc1cc2c(c(OC)c1OC)-c1ccc(SC)c(=O)cc1C(NC(=O)C(F)(F)F)CC2 (configuration not stated) | -0.5% | 1.1 | 23.8 | 7.5% | . | . | .
CC1(C)CC(=O)C=C(c2ccc(-c3cnn(Cc4ccccc4)c3)cc2)C1=O | -1.1% | 0.5 | -3.3 | 0.5% | . | . | .
CC(=O)Nc1ccc(C(=O)NCC(=O)OCc2ccccc2F)cc1 | 1.7% | -0.3 | 30.5 | -1.9% | 22.6% | -2.4 | 5.7
Cc1ccc(CN(Cc2ccccn2)C(=O)Nc2ccc(C)c(C)c2)cc1 | -2.5% | 1.2 | 38.3 | 0.0% | -0.9% | -2.8 | -5.0
O=C(O)C1(S(=O)(=O)CCC(F)=C(F)F)CC1 | . | -0.3 | -2.4 | -1.4% | 2.1% | -4.9 | 0.0
CCN(CC)CCN1C(=O)c2ccccc2NC1c1ccc(Br)cc1 (configuration not stated) | . | 0.2 | 2.2 | -0.8% | -11.8% | -0.9 | -8.4
C=CCNc1nnc(SCC(=O)N2CCC(C(N)=O)CC2)s1 | 138.9% | -0.6 | -5.9 | -0.8% | . | . | 25.4
CCc1cccc(NC(=O)Cn2c(=O)n(CCCCCC(=O)NCc3ccc(F)cc3)c(=O)c3sccc32)c1 | -4.5% | 5.0 | 6.4 | 0.8% | . | . | .
CN(C(=O)c1cccc(NC(=O)Cc2ccc(NC(=O)C3CCN(C(=O)C4CC4)CC3)cc2)c1)C1CCCCC1 | -2.4% | -0.5 | 0.1 | 2.5% | . | . | .
CCCSC1=C(C#N)C(c2ccc(OC)cc2)C2=C(CC(C)(C)CC2=O)N1 (configuration not stated) | -15.4% | -0.7 | 2.4 | 3.3% | 14.4% | 0.5 | -5.4
O=C(COC(=O)c1cccc(S(=O)(=O)N2CCCCC2)c1)NCc1cccc(Cl)c1 | ? | 0.2 | -0.2 | -0.9% | . | . | .
CCOc1ccc(-n2cc(C(=O)Nc3cccc(C)n3)c3cc(OC)c(OC)cc3c2=O)cc1 | -3.5% | -0.5 | -4.0 | 0.9% | . | . | .
Cc1cnc(CNc2cc(-c3ccccc3Cl)ncn2)cn1 | . | . | . | -0.1% | -2.4% | -1.4 | .
CCOc1ccc(/C(O)=C2/C(=O)C(=O)N(c3ccccn3)C2c2ccc(C)cc2)c(C)c1 (configuration not stated) | . | 1.9 | 9.6 | 1.0% | 0.6% | -1.6 | -3.8
C#CCOCCOCCOCCNc1nc(N2CCN(C(=O)[C@H]([C@@H](C)CC)n3cc(CCCCN)nn3)CC2)nc(N2CCN(C(=O)[C@H](CCCCN)n3cc(CCC(=O)O)nn3)CC2)n1 | -1.3% | -0.7 | 27.7 | 0.4% | . | . | -6.9
Cc1sc2ncn(CC(=O)NCCCOC(C)C)c(=O)c2c1S(=O)(=O)N1CCN(c2ncccn2)CC1 | . | 0.6 | -3.7 | 1.4% | 10.8% | 4.1 | -1.8
Cc1nnc(SCC(=O)N(C)c2ccccc2)n1-n1cccc1 | -1.4% | 0.3 | 2.0 | -0.2% | . | . | 2.3
NS(=O)(=O)c1ccc(N/N=C/c2cn(-c3ccccc3)nc2-c2ccccc2)c([N+](=O)[O-])c1 | 2.4% | 1.2 | -6.7 | -2.0% | -1.1% | 4.7 | -9.4
CCN1CCN(c2nc3sc4c(c3c(=O)n2-c2ccc(OC)cc2)CCCCC4)CC1 | -6.4% | 0.0 | 1.3 | -2.1%[38.3 µM] | -8.7% | 6.1 | -27.4
COc1cccc(Cn2c(=O)c(-c3ccc(Cl)cc3)nc3cnc(N4CCOCC4)nc32)c1 | . | . | . | 1.9% | -19.0% | -2.4 | .
CCCCNS(=O)(=O)/C=C/c1ccccc1 | -1.2% | 1.2 | -5.0 | -0.7% | 24.6% | 6.1 | -1.2
Next section.
SMILES | ClpP mod | TRPML1 agonist | TRPML1 blocker | PINK1 expr mod | Sfp PPTase inh | Menin-MLL FL inh | TRPV1 PAM
O=C(Nc1ccccc1Cl)C1CCCN1C(=O)OCc1ccccc1 (configuration not stated) | -0.6% | -1.2 | 4.1 | -0.4% | 11.6% | . | 7.2
CCc1nc(C)cn1S(=O)(=O)c1cc(Cl)c(OC)cc1Cl | 0.6% | 0.7 | 40.9 | -3.2%[38.3 µM] | -0.8% | 2.5 | 9.3
O=C(NCC1CCCO1)C1c2ccccc2C(=O)N1C1CCCCCC1 (configuration not stated) | 0.3% | -0.3 | 7.1 | ? | 9.2% | -0.6 | 5.6
COc1ccc(C)cc1N(C(=O)Cn1nnc(-c2ccc(C)o2)n1)C(C(=O)NC1CCCC1)c1ccncc1 (configuration not stated) | . | -0.6 | 11.5 | 0.9% | 8.4% | . | -4.3
COc1cc(Cl)ccc1OCc1cc(C(=O)NCC(C)(C)N2CCOCC2)no1 | -3.7% | -0.9 | -1.7 | -1.3% | 3.3% | -2.9 | 8.5
Cc1ccc(/C=N/NC(=O)c2nnn(-c3nonc3N)c2CSc2ccc(Cl)cc2)cc1 | -0.6% | 3.5 | -3.8 | 2.6% | 23.6% | 1.6 | 11.3
N#CC1(Nc2ccc(C(=O)O)cc2)CCCC1 | -21.8% | 0.7 | -4.1 | -1.6% | . | . | .
COc1ccccc1OC(=O)CCc1nc2ccccc2s1 | -1.8% | 1.6 | -2.4 | -0.8% | 14.1µM* | 0.0 | ?
